Compound activity as filed in PubChem.
GIV Gai3 FP = blocks GIV peptide binding to rat Galpha-i3; P08753; Galpha-i3/FITC-GIV peptide fluorescence polarization, 90 min; hits give low values; scaled: aluminum fluoride 0%, vehicle 100%; percent of control (FP), % (test concentration not listed); 210,000 tested, 0.42% active; AID 1224905;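 active means replicate mean at 85% of control or lower, very high polarization wells dropped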;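 further: wells of about 15 µL received 100 nL stock; the first replicate is given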
Target sequence (P08753 whole entry, looked up): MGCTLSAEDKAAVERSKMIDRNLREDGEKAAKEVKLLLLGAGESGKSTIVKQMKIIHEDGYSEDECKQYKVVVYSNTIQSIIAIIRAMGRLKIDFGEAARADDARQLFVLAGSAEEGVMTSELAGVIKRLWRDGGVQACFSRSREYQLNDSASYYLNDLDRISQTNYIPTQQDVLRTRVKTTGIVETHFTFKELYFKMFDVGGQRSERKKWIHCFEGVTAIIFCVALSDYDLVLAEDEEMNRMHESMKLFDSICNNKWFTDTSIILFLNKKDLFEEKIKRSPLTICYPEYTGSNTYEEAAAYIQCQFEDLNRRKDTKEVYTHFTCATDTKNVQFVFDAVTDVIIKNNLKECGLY
HCMV NEC inh = inhibitors of HCMV UL50-UL53 nuclear egress complex interaction; HTRF UL50-UL53 interaction, normalized percent inhibition; 190,000 tested, 0.15% active; inhibition, % (no concentration beside the values);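 active means both replicates at 50% or more, plus weaker picks with an unusually low signal ratio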;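 further: stock transfer was 100 nL into about 20 µL; 0% = negative control wells and 100% = wells with untagged competitor protein; inactives centre near -12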
Sa growth 42C = inhibitors of Staphylococcus aureus growth at 42 °C. S. aureus RN4220 growth, OD600, 20 h; hits give low values. relative growth, % (test concentration not listed). 170,000 tested, 0.53% active. AID 720641;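 active means growth at 42 °C up to 50% and 20 or more points under that at 30 °C, or under 10% at both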;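 further: 300 nL library stock went into each well; scaled to the means of positive and negative controls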
Sa growth 42C second temp = also measured in Sa growth 42C; calls as there; relative growth, %; measured here: growth at 30 °C;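 optical density after 20 h as mean of two plates; 100% = untreated growth and lower means inhibition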
* = called active by the depositor; · = no result given; & = joins results of further samples.

The opening four compounds, to show the layout:
Each structure is followed by: GIV Gai3 FP | HCMV NEC inh | Sa growth 42C | Sa growth 42C second temp
- COc1cccc(C(=O)Nc2ccc(-c3cc(C(F)(F)F)nn3-c3ccccc3)cc2)c1
    102.3 | -19.5 | 104.5 | 90.3
- Cc1ccc(S(=O)(=O)N2CCc3cc4cc(C)ccc4nc32)cc1
    102.7 | -17.3 | · | ·
- Nc1ccc(-c2ccc(N)cc2C(F)(F)F)c(C(F)(F)F)c1
    102.6 | 1.0 | 96.3 | 86.9
- O=C(CN1C2=NCCCN2c2ccccc21)c1cccs1
    104.0 | -4.9 | 130.4 | 90.7

This part in full (from the top)
Each structure is followed by: GIV Gai3 FP | HCMV NEC inh | Sa growth 42C | Sa growth 42C second temp
- COc1cccc(C(=O)Nc2ccc(-c3cc(C(F)(F)F)nn3-c3ccccc3)cc2)c1
    102.3 | -19.5 | 104.5 | 90.3
- Cc1ccc(S(=O)(=O)N2CCc3cc4cc(C)ccc4nc32)cc1
    102.7 | -17.3 | · | ·
- Nc1ccc(-c2ccc(N)cc2C(F)(F)F)c(C(F)(F)F)c1
    102.6 | 1.0 | 96.3 | 86.9
- O=C(CN1C2=NCCCN2c2ccccc21)c1cccs1
    104.0 | -4.9 | 130.4 | 90.7
- CN(CCCn1cnc2c([nH]c3ccccc32)c1=O)C1CCCCC1
    100.0 | · | 92.6 | 84.1
- CCN(CC)c1ccc(NC(=O)CN(C)Cc2ccccc2C)cc1
    · | -1.0 | 79.8 | 78.8
- COc1ccc(-n2c(=O)c3ccc(C(=O)NCc4ccc(C)cc4)cc3n(Cc3ccc(Cl)cc3)c2=O)cc1
    101.3 | -16.7 | 106.9 | 87.9
- Cc1nc(-c2ccccc2)sc1-c1nnc(-c2cccc3ccccc23)o1
    97.8 | -20.6 | 88.0 | 87.6
- COc1ccc(Cc2nn3c(-c4cccnc4)nnc3s2)cc1OC
    105.9 | -6.1 | · | ·
- CC1(C)CC(NC(=O)Cc2ccc(Cl)cc2)CC(C)(C)N1
    102.7 | -19.1 | 90.0 | 70.2
- CCCCNc1nc(Nc2ccccc2)c2cnn(C)c2n1
    105.7 | -5.1 | · | ·
- c1ccn2cc(-c3ccc4c(c3)OCCO4)nc2c1
    · | -7.9 | 96.5 | 87.1
- Cc1ccc(S(=O)(=O)/C(C#N)=C/c2ccc(-c3ccc(Cl)cc3)o2)cc1
    109.7 | · | 95.0 | 80.3
- CCOC(=O)C(C)c1nc2ccccc2[nH]c1=O (stereo unspecified)
    109.9 | 7.8 | 99.9 | 97.5
- CC[n+]1oc(-c2ccccc2)cc1C
    97.7 | · | 92.4 | 82.0

Each structure is followed by: GIV Gai3 FP | HCMV NEC inh | Sa growth 42C | Sa growth 42C second temp
- O=C(Nc1ncc(Cc2cc(Cl)ccc2Cl)s1)c1ccco1
    · | 5.0 | 100.0 | 82.5
- C=Cc1ccc(Cn2c(C(=O)OC)cc3occc32)cc1
    99.3 | -5.7 | 84.0 | 84.0
- CC(C)Cn1c(=S)[nH]c2cc(Cl)ccc21
    · | -30.0 | 85.4 | 93.5
- CC1(C)CC2CC(C)(CN2C(=O)CSc2cccc[n+]2[O-])C1 (stereo unspecified)
    · | -22.2 | 84.3 | 95.0
- O/N=C(/CCc1ccccc1)C1(O)CCCCC1
    96.2 | -12.7 | 98.4 | 98.4
- CCCCN1C(=O)C2ON(c3ccccc3C)C(c3ccco3)C2C1=O (stereo unspecified)
    103.9 | -7.6&-16.0 | 94.4 | 83.1
- COC(=O)c1cc(OC)c(Br)c(OC)c1
    107.7 | -13.9 | 103.0 | 72.5
- O=C(O)C1Nc2ccccc2C2C=CCC12 (stereo unspecified)
    · | 0.6 | 156.9 | 75.8
- Cc1ccc(NC(=O)N2CCN3CCCCC3C2)cc1 (stereo unspecified)
    101.8 | 0.8 | · | ·
- O=C1CCC(=O)N1c1nc2n(n1)C(c1ccccc1)C=C(c1ccccc1)N2 (stereo unspecified)
    96.6 | -13.3 | · | ·
- O=C(O)CCn1ncc(=O)c2ccccc21
    · | -79.3 | 86.6 | 94.1
- O=C(CCCc1nc(-c2ccccc2Cl)no1)Nc1nccs1
    109.3 | -19.0 | · | ·
- N#CCc1cn(-c2ccccc2)nc1-c1ccccc1
    · | -28.0 | 79.1 | 56.5
- O=C(O)c1cnn2cc(CCO)cnc12
    102.2 | -18.4 | · | ·
- CCCN(CCC)c1ncnc2ccc(Br)cc12
    · | -13.7 | 87.0 | 85.2

Each structure is followed by: GIV Gai3 FP | HCMV NEC inh | Sa growth 42C | Sa growth 42C second temp
- CCCN(CCC)C(=O)Cn1c(=O)n(-c2cccc(C)c2)c(=O)c2c1c1cc(OC)ccc1n2C
    98.7&99.2 | -4.8&-57.0 | 101.6 | 83.8
- COC(=O)c1ccc(CSc2nnc(N)s2)o1
    104.6 | -12.6 | 109.3 | 90.5
- CC(=O)c1cccc(NC(=O)C(Cc2ccccc2)NS(=O)(=O)c2ccc(Br)s2)c1 (stereo unspecified)
    100.4 | -0.4 | 103.2 | 111.2
- CC1Sc2ccc(S(=O)(=O)C(C)CC(=O)Nc3ccccc3F)cc2NC1=O (stereo unspecified)
    104.3 | -3.1 | 97.3 | 101.5
- CCOC(=O)c1sc(Nc2ccc(C)cc2)c(C(=O)NCc2ccco2)c1N
    · | -7.8 | 106.4 | 97.0
- CC(C)CCNC(=O)N1CCN(S(=O)(=O)c2ccc3c(ccn3C)c2)CC1
    96.7 | · | 86.3 | 91.0
- COc1ccc(-c2nc(SC(C)C(=O)O)c3c(=O)n(C)c(=O)n(C)c3n2)cc1 (stereo unspecified)
    101.6 | -23.5 | 83.6 | 88.3
- Cc1cccc(Cc2cnc(NC(=O)C3Cc4ccc(C)cc4C(=O)O3)s2)c1 (stereo unspecified)
    102.4 | -24.8 | 80.0 | 85.5
- Cc1n(O)c2c(NO)ccc(N=O)c2[n+]1[O-]
    96.0 | -7.8 | 113.1 | 103.4
- O=C(CN1CCSc2ccccc21)NCc1ccccc1
    100.8 | -14.2&-30.7 | 117.6 | 97.1
- COc1nc(C)nc(N/C=C(\C#N)C(=O)C2CC2)n1
    102.9 | 1.3 | 96.0 | 95.6
- COc1ccc(N=c2sc(C3=c4ccccc4=NC3=O)c(O)n2-c2ccc(OC)cc2)cc1
    102.3 | -20.6 | · | ·
- COc1cc2ccccc2cc1C(=O)Nc1cc(-c2nc3ccccc3o2)ccc1C
    104.4 | 30.3 | 99.2 | 98.8
- CCOC(=O)N1CCc2c(sc3ncn(Cc4ccc(Cl)cc4)c(=O)c23)C1
    109.1 | -50.6 | 98.6 | 84.4
- Cc1ccc(S(=O)(=O)c2nc(N3CCOCC3)sc2Cl)cc1
    · | -9.7 | 116.8 | 77.7

Each structure is followed by: GIV Gai3 FP | HCMV NEC inh | Sa growth 42C | Sa growth 42C second temp
- COc1ccc(C2=NN(CN3C(=O)C(=O)c4cc(Br)ccc43)C(c3ccccc3)C2)cc1 (stereo unspecified)
    104.4 | -10.1 | · | ·
- CC1CS(=O)(=O)N(c2ccc(S(=O)(=O)NC3CCCC3)cc2)C1=O (stereo unspecified)
    110.5 | 3.4 | · | ·
- COC(=O)c1c(NC(=O)CSc2nc(C)nc3sc4c(c23)CCC4)sc2c1CCC2
    103.5 | -0.8 | · | ·
- CCc1cc(C=Nc2ccccc2)c(O)s1
    105.0&110.8 | -57.6&-7.1 | 120.6&84.0 | 55.4&92.9
- O=C(CCn1c(=O)c2ccccc2n2c(=S)[nH]nc12)NC1CCCCC1
    99.2 | -19.2 | · | ·
- CCOC(=O)Cn1c(-c2ccc(Cl)cc2)csc1=Nc1ccc(F)cc1
    · | -4.2 | 91.6 | 74.9
- CN(C(=O)CSc1nnc(-c2ccccc2)o1)C1CCS(=O)(=O)C1 (stereo unspecified)
    · | 0.3 | 94.1 | 94.4
- N#CC1=C(N)OC(C2CC2)=C(C#N)C1c1ccccc1 (stereo unspecified)
    105.9 | 1.0 | 112.0 | 91.7
- C[C@H](N)[C@H](O)c1cccc(O)c1
    · | -18.2&-22.9 | 99.1 | 96.7
- O=C(Cn1c(CO)nc2ccccc21)Nc1ccccc1
    · | -6.7 | 83.0 | 91.0
- COc1ccc(S(=O)(=O)N(C(=O)c2ccccc2)c2ccc3oc(=O)sc3c2)cc1OC
    94.9 | -10.6 | · | ·
- CCCCOc1ccccc1CC1C(=O)Nc2ccc(Br)cc21 (stereo unspecified)
    97.4 | 21.6 | 105.1 | 72.1
- O=c1c(NCCCc2ccccc2)nccn1-c1ccc2c(c1)OCCO2
    109.2 | -39.1 | 97.6 | 83.6
- COc1ccc(C2C=C(c3ccccc3)Nc3nc(N4C(=O)c5ccccc5C4=O)nn32)cc1 (stereo unspecified)
    100.5 | -25.1 | · | ·
- O=C1c2ccccc2C(=O)N1CCn1cnc2c(cnn2-c2cccc(Cl)c2)c1=O
    · | -2.0 | 87.1 | 94.9

Filtered by structure, the entries above with a CF3 group.
Each structure is followed by: GIV Gai3 FP | HCMV NEC inh | Sa growth 42C | Sa growth 42C second temp
- COc1cccc(C(=O)Nc2ccc(-c3cc(C(F)(F)F)nn3-c3ccccc3)cc2)c1
    102.3 | -19.5 | 104.5 | 90.3
- Nc1ccc(-c2ccc(N)cc2C(F)(F)F)c(C(F)(F)F)c1
    102.6 | 1.0 | 96.3 | 86.9

Next compounds:
Each structure is followed by: GIV Gai3 FP | HCMV NEC inh | Sa growth 42C | Sa growth 42C second temp
- CC1CC(=O)c2cnn(-c3nc4ccccc4s3)c2C1 (stereo unspecified)
    102.0 | -23.5 | 94.8 | 86.6
- O=C(CSc1nnc2sc3ccccc3n12)c1ccc2c(c1)OCO2
    105.5 | -15.0 | · | ·
- CCOc1ccc(S(=O)(=O)NCC(c2ccc(N(C)C)cc2)N(C)C)cc1 (stereo unspecified)
    113.7 | 13.7 | 92.1 | 102.0
- COC(=O)Nc1ccc(S(=O)(=O)N2CCCCC2)cc1
    104.9 | 8.9 | 116.3 | 77.2
- CCOC(=O)c1ccccc1NC(=O)CN1CCCN(Cc2cc(C)ccc2C)S1(=O)=O
    104.9 | · | 99.2 | 99.2
- COc1cccc(CNC(=O)C2CCCN(c3nnc(-n4c(C)ccc4C)s3)C2)c1 (stereo unspecified)
    104.6 | -6.6 | 96.7 | 86.5
- c1ccc(Oc2ccc(-c3ccn[nH]3)cc2)cc1
    105.9 | -10.4 | 97.8 | 53.6
- CC(C)n1c(=O)[nH]c2ccccc2c1=O
    97.5 | -13.1 | · | ·
- Cc1nc(-n2[nH]c(C)c(Cc3ccccc3)c2=O)sc1C(=O)Nc1cccc(Cl)c1
    100.2 | -29.4 | · | ·
- COc1cccc(CSc2nncn3c2cc2oc(C)cc23)c1
    106.5 | -61.4 | 105.9 | 82.7
- O=c1c2c(nc3nc(CNc4cccc(Cl)c4)[nH]n13)CCC2
    106.9 | -22.3 | · | ·
- CC(=O)Nc1nc2cc(C)c(C)cc2[nH]1
    107.3 | -22.4 | · | ·
- Cc1oc(-c2ccc(C(=O)O)cc2)nc1COc1ccccc1
    103.8 | · | 103.6 | 89.9
- Cc1nc2nc3c(c(NCc4ccccc4Cl)n2n1)CCC3
    109.3 | -4.0 | · | ·
- Cc1ccc(C)c(NC(=O)N2CCC(CN3CCCCC3)CC2)c1
    95.7 | -1.5 | · | ·

Each structure is followed by: GIV Gai3 FP | HCMV NEC inh | Sa growth 42C | Sa growth 42C second temp
- CC1CCN(S(=O)(=O)c2ccc(C(=O)CN3C(=O)COc4ccccc4C3=O)cc2)CC1
    104.5 | -13.6 | · | ·
- O=C(CSc1nc2nc[nH]c2c(=O)[nH]1)Nc1nccs1
    93.8 | -0.1 | · | ·
- COC(=O)C1=C(C)N=c2s/c(=C\c3cccc([N+](=O)[O-])c3)c(=O)n2C1c1ccc(OC)c(OC)c1 (stereo unspecified)
    105.1 | -29.0 | · | ·
- CC(C)NC(=O)C(C)N1CCN(S(=O)(=O)c2ccc3ccccc3c2)CC1 (stereo unspecified)
    · | -42.1 | 82.1 | 89.4
- COc1ccccc1NC(=O)c1c(NC(=O)COc2ccccc2)sc2c1CCCCC2
    108.0 | -31.5 | 107.2 | 81.5
- CCC(Sc1nnc2n1CCN2c1ccccc1)C(=O)OC (stereo unspecified)
    97.6 | -35.7 | · | ·
- O=C(NCCCNC1CCCCC1)c1cc2ccccc2[nH]1
    98.1 | -8.8 | 107.1 | 90.5
- COc1cccc(/C=C2/SC(=O)N(CCC(=O)Nc3c(C)n(C)n(-c4ccccc4)c3=O)C2=O)c1
    107.7 | -21.0 | · | ·
- N#CCC(c1ccccc1)C(C#N)c1ccc(Br)cc1 (stereo unspecified)
    · | -2.7 | 83.1 | 80.0
- COc1ccc(-c2nnc(SCCCn3c(=O)[nH]c4ccccc43)o2)cc1
    · | -12.2 | 84.6 | 88.2
- O=C(Nc1ccc2[nH]c(=O)[nH]c2c1)NC1CCCCC1
    · | -27.8 | 81.6 | 87.6
- CNC(=O)Cc1ccc(-n2c(=O)c3ccccc3n(CC(=O)Nc3ccc4c(c3)OCCO4)c2=O)cc1
    98.3 | 6.1 | · | ·
- COc1ccc(N(C)C(=O)Cn2nc(Cc3ccncc3)c3ccccc3c2=O)c(OC)c1
    99.2 | 2.1 | 84.2 | 81.6
- CCCc1cc(=O)oc2cc(C)c(CN3CCCC3)c(O)c12
    106.1 | -7.4 | 97.3 | 97.3
- CCN(CC)c1ccc(NC(=O)CN2C(=O)C3CCCC3=Nc3cc(C)c(C)cc32)c(C)c1 (stereo unspecified)
    103.3 | 3.9 | · | ·
- N#Cc1c(NC(=O)c2cc(-c3cccs3)on2)sc2c1CCC2
    100.6 | · | 106.3 | 97.0
